# Bioassay records as filed in PubChem.
# Env fusion inh: HIV envelope-mediated fusion inhibition | 360,000 tested, 1.1% active | inhibition, % at 12.3 µM | HeLa-JRFL Env/CEM21 cell fusion, luciferase | AID 651610;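 active = mean replicate inhibition score of at least 50 and every replicate individually at or above 50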;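 note: 0% = plate neutral controls and 100% = maraviroc near 300 nM; one replicate is shown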
# UUG fidelity: yeast start codon fidelity modulation. activity score, % at 18.7 µM. 350,000 tested, 0.13% active. S. cerevisiae UUG-firefly luciferase reporter, luminescence/redox ratio. AID 602363;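 active = replicate mean at a twofold rise or more, about +100% in these data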;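 note: firefly luciferase made from a UUG start codon reports start codon fidelity; reporter light over untreated wells divided by growth signal over untreated wells; some hits fall short of that in this replicate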
# * hit, by the source's call; [ ] = another dose, or the depositor's remark.
no.	structure	Env fusion inh	UUG fidelity
1	O=C(C[C@H]1CC[C@H]2[C@@H](COC[C@@H](O)CN2S(=O)(=O)c2cccc(Cl)c2)O1)N1CCCCC1	15.4[16.7 µM]	1.7
2	COc1ccc(S(=O)(=O)Nc2ccc3c(c2)C(=O)N([C@H](C)CO)C[C@H](C)[C@H](CN(C)C(=O)c2ccncc2)OCCCC[C@@H](C)O3)cc1	-26.9[16.7 µM]	3.9
3	C[C@@H]1CN([C@H](C)CO)C(=O)c2cc(C#CC3(O)CCCC3)cnc2O[C@@H]1CN(C)Cc1ccncc1	-19.8[16.7 µM]	-3.9
4	N#C[C@@H]1[C@H](c2ccc(C3=CCCC3)cc2)[C@@H](CO)N1C(=O)NC1CCCC1	19.2[16.7 µM]	20.0
5	C[C@@H]1CN([C@@H](C)CO)S(=O)(=O)c2ccc(C#CC3CC3)cc2O[C@H]1CN(C)Cc1ccncc1	6.4[16.7 µM]	-3.9
6	COc1ccc(S(=O)(=O)Nc2ccc3c(c2)C(=O)N([C@H](C)CO)C[C@H](C)[C@H](CN(C)Cc2ccc(Cl)c(Cl)c2)O3)cc1	-38.9[16.7 µM]	1.7
7	C/C=C/c1ccc2c(c1)O[C@@H](CN(C)C(=O)c1cccnc1)[C@H](C)CN([C@@H](C)CO)S2(=O)=O	-16.4[16.7 µM]	-12.5
8	CCCNC(=O)C[C@H]1CC[C@@H]2[C@@H](COc3ccc(NC(=O)CCC)cc3C(=O)N2C)O1	16.7[16.7 µM]	13.8
9	COCc1cn(CC[C@H]2CC[C@@H](NC(=O)Nc3ccc(Cl)cc3)[C@@H](CO)O2)nn1	11.1[16.7 µM]	-12.9
10	CN(C)Cc1cn(CC[C@@H]2CC[C@H](NC(=O)Nc3ccccc3F)[C@H](CO)O2)nn1	0.0[16.7 µM]	-8.7
11	CN(C)C(=O)[C@@]1(CCS(=O)(=O)c2ccccc2)N=C(c2ccc(OCCCO)cc2)O[C@H]1c1ccccc1	-2.9[16.7 µM]	-7.9
12	C[C@H](CO)N1C[C@H](C)[C@@H](CN(C)Cc2ccc(C(F)(F)F)cc2)Oc2ccc(NS(=O)(=O)c3cn(C)cn3)cc2CC1=O	-1.9[16.7 µM]	-1.9
13	C/C=C/c1ccc2c(c1)O[C@@H](CN(C)C(=O)c1cccnc1)[C@@H](C)CN([C@@H](C)CO)S2(=O)=O	14.7[16.7 µM]	-6.3
14	C[C@@H](NC(=O)C[C@H]1CC[C@@H]2[C@H](COC[C@H](O)CN2Cc2cc(F)ccc2F)O1)c1ccccc1	-88.8[16.7 µM]	12.9
15	CC(C)NC(=O)N(C)C[C@@H]1Oc2ccc(NC(=O)Nc3ccccc3)cc2C(=O)N([C@@H](C)CO)C[C@H]1C	6.0[16.7 µM]	-23.6
16	Cc1noc(C)c1S(=O)(=O)Nc1ccc2c(c1)C(=O)N([C@@H](C)CO)C[C@@H](C)[C@H](CN(C)C(=O)NC1CCCCC1)OCCCC[C@@H](C)O2	-25.5[16.7 µM]	-0.2
17	C[C@@H]1CCCCO[C@H](CN(C)Cc2ccccc2)[C@H](C)CN([C@@H](C)CO)C(=O)c2cc(NC(=O)c3ccccc3)ccc2O1	5.7[16.7 µM]	12.0
18	COCc1cn(CC[C@@H]2CC[C@@H](NC(=O)Nc3c(C)noc3C)[C@@H](CO)O2)nn1	-4.8[16.7 µM]	-8.9
19	Cc1ccc(S(=O)(=O)N(C)C[C@H]2Oc3c(NC(=O)Nc4ccc5c(c4)OCO5)cccc3C(=O)N([C@H](C)CO)C[C@@H]2C)cc1	-4.9[16.7 µM]	5.4
20	CC(C)CC#Cc1ccc2c(c1)O[C@H](CN(C)C(=O)CC1CC1)[C@@H](C)CN([C@@H](C)CO)S2(=O)=O	22.6[16.7 µM]	-2.9
21	CNC[C@@H]1Oc2ccc(NC(=O)Nc3ccc(C(F)(F)F)cc3)cc2CC(=O)N([C@@H](C)CO)C[C@H]1C	-1.0[16.7 µM]	30.6
22	COc1ccc(S(=O)(=O)N(C)C[C@H]2Oc3ccc(NC(=O)NC(C)C)cc3C(=O)N([C@@H](C)CO)C[C@H]2C)cc1	-18.1[16.7 µM]	-5.2
23	CC(C)NC(=O)N(C)C[C@H]1Oc2ccc(NC(=O)CCCCCC(=O)Nc3ccccc3N)cc2CC(=O)N([C@@H](C)CO)C[C@H]1C	0.7[16.7 µM]	-2.0
24	O=C(CCN1CCCCC1)N[C@@H]1CC[C@H](CCNS(=O)(=O)c2ccccc2)O[C@@H]1CO	-7.2[16.7 µM]	11.4
25	COCCNC(=O)C[C@@H]1C[C@H]2c3cc(NC(=O)C4CCOCC4)ccc3O[C@H]2[C@@H](CO)O1	21.4[16.7 µM]	-9.1

# An excerpt from above in order of the UUG fidelity value, smallest number first:
no.	structure	Env fusion inh	UUG fidelity
9	COCc1cn(CC[C@H]2CC[C@@H](NC(=O)Nc3ccc(Cl)cc3)[C@@H](CO)O2)nn1	11.1[16.7 µM]	-12.9
24	O=C(CCN1CCCCC1)N[C@@H]1CC[C@H](CCNS(=O)(=O)c2ccccc2)O[C@@H]1CO	-7.2[16.7 µM]	11.4
17	C[C@@H]1CCCCO[C@H](CN(C)Cc2ccccc2)[C@H](C)CN([C@@H](C)CO)C(=O)c2cc(NC(=O)c3ccccc3)ccc2O1	5.7[16.7 µM]	12.0

# (listing goes on)
no.	structure	Env fusion inh	UUG fidelity
26	CO[C@@H]1CN(C)C(=O)c2cc(NC(C)=O)ccc2OC[C@@H](C)N(CCC(F)(F)F)C[C@H]1C	4.4[16.7 µM]	0.3
27	C[C@H]1CN([C@@H](C)CO)C(=O)c2cccc(NC(=O)C3CCOCC3)c2O[C@@H]1CN(C)C(=O)Nc1cccc2ccccc12	1.2[16.7 µM]	-9.0
28	O=C(C[C@@H]1CC[C@@H](NC(=O)c2ccncc2)[C@@H](CO)O1)NCC1CCCCC1	3.4[16.7 µM]	-0.4
29	C[C@H](CO)N1C[C@H](C)[C@H](CN(C)Cc2cncnc2)Oc2ncc(C#Cc3ccccn3)cc2C1=O	-14.5[16.7 µM]	-0.7
30	C[C@H](CO)N1C[C@H](C)[C@H](CN(C)C(=O)c2ccc3c(c2)OCO3)Oc2cc(/C=C/c3ccccc3)ccc2S1(=O)=O	-0.9[16.7 µM]	-11.4
31	C[C@@H]1CCCCO[C@H](CN(C)C(=O)Nc2ccc(C(F)(F)F)cc2)[C@H](C)CN([C@H](C)CO)C(=O)c2cc(NS(C)(=O)=O)ccc2O1	0.5[16.7 µM]	-12.5
32	C[C@H](CO)N1C[C@H](C)[C@@H](CN(C)Cc2ccccn2)Oc2cc(Br)ccc2S1(=O)=O	5.7[16.7 µM]	5.4
33	Cc1noc(C)c1NC(=O)Nc1ccc2c(c1)C(=O)N([C@H](C)CO)C[C@H](C)[C@H](CN(C)CC1CCCCC1)OCCCC[C@@H](C)O2	-11.7[16.7 µM]	11.3
34	Cc1noc(C)c1NC(=O)Nc1ccc2c(c1)C(=O)N([C@@H](C)CO)C[C@H](C)[C@@H](CN(C)C(=O)Nc1cccc3ccccc13)OCCCC[C@@H](C)O2	0.8[16.7 µM]	11.8
35	CC(C)CC#Cc1cnc2c(c1)C(=O)N([C@@H](C)CO)C[C@H](C)[C@@H](CN(C)C(=O)Cc1ccccc1)O2	26.9[16.7 µM]	1.7
36	C[C@@H]1CN([C@@H](C)CO)C(=O)Cc2cc(NC(=O)C3CC3)ccc2O[C@@H]1CN(C)Cc1ccc(C(=O)Nc2ccccc2N)cc1	-68.3[16.7 µM]	1.0
37	CC(C)CC#Cc1ccc2c(c1)O[C@@H](CN(C)C(=O)c1cccc(F)c1)[C@@H](C)CN([C@H](C)CO)S2(=O)=O	11.8[16.7 µM]	-5.7
38	Cc1noc(C)c1NC(=O)Nc1ccc2c(c1)C(=O)N([C@@H](C)CO)C[C@@H](C)[C@@H](CN(C)C(=O)Nc1ccc(C(F)(F)F)cc1)OCCCC[C@@H](C)O2	-2.5[16.7 µM]	1.3
39	CCCC#Cc1cnc2c(c1)C(=O)N([C@H](C)CO)C[C@H](C)[C@H](CN(C)C(=O)Nc1cc(F)ccc1F)O2	30.9[16.7 µM]	14.2
40	C[C@@H]1CCCCO[C@H](CN(C)C(=O)CCC(F)(F)F)[C@H](C)CN([C@@H](C)CO)C(=O)c2cc(NC(=O)Nc3ccccc3)ccc2O1	4.1[16.7 µM]	2.3
41	O=C(N[C@H]1CC[C@H](CCn2cc(Cc3ccccc3)nn2)O[C@H]1CO)c1ccccn1	-5.3[16.7 µM]	-6.9
42	C[C@@H]1CN([C@H](C)CO)C(=O)Cc2cc(NC(=O)CCC(F)(F)F)ccc2O[C@@H]1CN(C)S(=O)(=O)c1cn(C)cn1	1.7[16.7 µM]	-10.6
43	COc1ccccc1C#Cc1ccc2c(c1)O[C@H](CN(C)Cc1ccccc1)[C@@H](C)CN([C@H](C)CO)S2(=O)=O	24.0[16.7 µM]	12.6
44	C[C@@H]1CN([C@@H](C)CO)C(=O)c2cc(NS(=O)(=O)c3ccc(Cl)cc3)ccc2O[C@H]1CN(C)S(=O)(=O)c1ccccc1	-13.8[16.7 µM]	-0.8
45	C[C@H]1CN([C@@H](C)CO)C(=O)c2cc(NC(=O)Cc3cn(C)c4ccccc34)ccc2O[C@@H]1CN(C)Cc1ccc(Oc2ccccc2)cc1	4.4[16.7 µM]	18.0
46	C[C@@H]1CCCCO[C@H](CN(C)Cc2ccc(C(=O)O)cc2)[C@H](C)CN([C@H](C)CO)C(=O)c2cc(NS(=O)(=O)c3cccs3)ccc2O1	-51.6[16.7 µM]	-1.4
47	C[C@@H]1CN([C@@H](C)CO)S(=O)(=O)c2ccc(C#CC3(O)CCCC3)cc2O[C@H]1CN(C)C	-11.9[16.7 µM]	8.0
48	Cc1noc(C)c1S(=O)(=O)N(C)C[C@@H]1Oc2ccc(NC(=O)Cn3cnnn3)cc2CC(=O)N([C@H](C)CO)C[C@@H]1C	-0.3[16.7 µM]	-2.6
49	C[C@@H]1CCCCO[C@H](CN(C)S(=O)(=O)c2ccc(F)cc2)[C@@H](C)CN([C@H](C)CO)C(=O)c2cc(NC(=O)c3ccccc3)ccc2O1	3.4[16.7 µM]	-0.3
50	C[C@@H]1CN([C@@H](C)CO)C(=O)c2cc(NC(=O)NC3CCCCC3)ccc2O[C@@H](C)CCCCO[C@@H]1CN(C)C(=O)Cc1ccccc1	62.0*[16.7 µM]	9.1

# Next compounds
no.	structure	Env fusion inh	UUG fidelity
51	Cc1noc(C)c1S(=O)(=O)Nc1ccc2c(c1)C(=O)N([C@@H](C)CO)C[C@@H](C)[C@H](CN(C)CC1CC1)OCCCC[C@H](C)O2	17.6[16.7 µM]	13.3
52	C[C@@H]1CN([C@@H](C)CO)S(=O)(=O)c2ccc(C3=CCCC3)cc2O[C@@H]1CN(C)C(=O)c1ccccn1	13.0[16.7 µM]	-5.0
53	COc1ccc(NC(=O)Nc2ccc3c(c2)C(=O)N([C@H](C)CO)C[C@@H](C)[C@@H](CN(C)C(=O)c2ccccc2)OCCCC[C@H](C)O3)cc1	-31.4[16.7 µM]	7.9
54	Cc1noc(C)c1NC(=O)N(C)C[C@@H]1OCCCC[C@@H](C)Oc2ccc(NS(=O)(=O)c3cn(C)cn3)cc2C(=O)N([C@H](C)CO)C[C@@H]1C	8.5[16.7 µM]	-18.8
55	C[C@@H]1CN([C@H](C)CO)C(=O)c2cc(NS(=O)(=O)c3cn(C)cn3)ccc2O[C@@H](C)CCCCO[C@@H]1CN(C)C(=O)c1ccccc1	16.7[16.7 µM]	3.6
56	Cc1noc(C)c1S(=O)(=O)N(C)C[C@H]1OCCCC[C@@H](C)Oc2ccc(NS(=O)(=O)c3ccc(F)cc3)cc2C(=O)N([C@@H](C)CO)C[C@@H]1C	2.9[16.7 µM]	7.1
57	C[C@@H]1CN([C@@H](C)CO)C(=O)c2cccc(NC(=O)C3CC3)c2O[C@H]1CN(C)Cc1ccc(Cl)c(Cl)c1	17.6[16.7 µM]	10.1
58	C[C@H]1CN([C@@H](C)CO)S(=O)(=O)c2ccc(/C=C/c3ccccc3)cc2O[C@@H]1CN(C)C(=O)c1cccnc1	-12.4[16.7 µM]	6.4
59	COc1ccc(CN(C)C[C@H]2Oc3ccc(NC(=O)Nc4c(C)noc4C)cc3C(=O)N([C@@H](C)CO)C[C@@H]2C)cc1	-5.6[16.7 µM]	-6.2
60	C[C@H](CO)N1C[C@H](C)[C@@H](CN(C)C(=O)C2CC2)Oc2cc(C#CCN(C)C)ccc2S1(=O)=O	-7.1[16.7 µM]	26.5
61	C[C@@H]1CN([C@H](C)CO)C(=O)Cc2cc(NS(=O)(=O)c3ccc(Cl)cc3)ccc2O[C@@H]1CN(C)S(=O)(=O)c1ccccc1	-4.6[16.7 µM]	6.4
62	C[C@H]1CN([C@@H](C)CO)C(=O)c2cc(-c3ccc(F)cc3)cnc2O[C@H]1CN(C)Cc1cncnc1	-29.8[16.7 µM]	-8.7
63	COc1ccc(NC(=O)Nc2ccc3c(c2)C(=O)N([C@@H](C)CO)C[C@H](C)[C@H](CN(C)Cc2ccc(C(F)(F)F)cc2)OCCCC[C@@H](C)O3)cc1	4.0[16.7 µM]	11.0
64	COc1cccc(NC(=O)N[C@H]2CC[C@@H](CC(=O)NCc3ccccn3)O[C@H]2CO)c1	-5.4[16.7 µM]	-9.8
65	COc1ccccc1S(=O)(=O)N[C@@H]1CC[C@H](CC(=O)N2CCCCC2)O[C@@H]1CO	-2.2[16.7 µM]	-25.0
66	CNC[C@H]1Oc2ccc(NC(=O)CCC(F)(F)F)cc2CC(=O)N([C@@H](C)CO)C[C@@H]1C	-7.8[16.7 µM]	-33.4
67	CNC(=O)C[C@H]1CC[C@H]2[C@@H](COc3ccc(NC(=O)Nc4cccc(F)c4)cc3C(=O)N2C)O1	-27.5[16.7 µM]	12.1
68	C[C@H](O)C#Cc1cnc2c(c1)C(=O)N([C@@H](C)CO)C[C@H](C)[C@@H](CN(C)C(=O)CC1CC1)O2	-19.6[16.7 µM]	-3.4
69	Cc1ccc(S(=O)(=O)N(C)C[C@@H]2Oc3c(NC(=O)c4ccc(-c5nccs5)cc4)cccc3C(=O)N([C@@H](C)CO)C[C@@H]2C)cc1	-36.0[16.7 µM]	-8.9

# Some of the compounds tested; rates above refer to the full screens.
